# Screening data deposited in PubChem by ICCB-Longwood Screening Facility, Harvard Medical School.
# Ba CapD inh = CapD enzyme inhibition; z-score (no concentration beside the values); hit rate 0.23% among 140,000; purified CapD enzyme, fluorescence intensity read-out; stronger effect = lower value; some hits fall short of the stated cut;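 active means z-score under -4 in either of two replicates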;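 further: stock transfer was 100 nL into about 40 µL; score is relative to mean and spread of the plate; one replicate is shown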
# AID504770 = E. coli YBA685 growth inhibition, screen for V. cholerae RctB inhibitors; E. coli YBA685 rctB-dependent plasmid, OD600 growth, 3 h; stronger effect = lower value; z-score (no concentration beside the values); hit rate 0.27% among 130,000;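 active means z-score under -2 on both plates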;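 further: wells of about 30 µL received 100 nL stock; score is relative to mean and SD of the test wells; the first replicate is given; strong numbers were not always called active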
# Numbers without * were called inactive; . = no result given.
Structure,Ba CapD inh,AID504770
O=C(O)c1nccnc1C(=O)N1CCN(c2nc3ccc(Cl)cc3s2)CC1,0.41,-0.85
CC(=O)N1CCC(N)=N1,.,2.8
COc1ccc(-c2nc3ncccn3c2Nc2ccccc2)cc1,-0.04,2.1
Cc1cc(/C=N/NC(=O)c2cncc(Br)c2)c(C)n1-c1cccc(C(F)(F)F)c1,-0.49,.
CSc1nnc(Nc2ccc(Cl)cc2Cl)s1,-0.02,-0.3
O=C1NC(=Nc2ccccc2)S/C1=C/c1ccc(Cl)cc1,-0.39,-1.1
COc1ccc(C(=O)Cn2c(Br)nc3c2c(=O)[nH]c(=O)n3C)cc1,0.39,.
COc1ccc(C2=NN3C(C2)c2cccc(OC)c2OC3c2ccc(F)c(F)c2)cc1 (stereo not given),-0.84,.
CCCC(=O)N1c2c(C)cc(C)cc2C2=C(SC(C(=O)OC)=C(C(=O)OC)C23SC(C(=O)OC)=C(C(=O)OC)S3)C1(C)C,-0.59,.
CN1CCN(c2nc3c(c(=O)n(C)c(=O)n3C)n2Cc2c(Cl)cccc2Cl)CC1,0.34,.
CC1=C(C(=O)N2CCCC2)C2(CCN(S(=O)(=O)c3cccs3)CC2)OC1=O,0.72,-0.35
O=C(CSc1nc2[nH]ncc2c(=O)n1-c1cccc2ccccc12)N1CCN(c2ccccc2)CC1,-0.29,.
O=C(NC(Cc1nc2ccccc2n1CCO)c1ccccc1)c1ccccc1 (stereo not given),1.2,0.7
CC1CCCCN1C(=O)COc1ncnc2ccc(Br)cc12 (stereo not given),.,-0.05
COC(=O)c1ccc(Nc2nc3ccc(Cl)cc3n3cnnc23)cc1,1.9,0.2
O=C(c1cccc(S(=O)(=O)NC2CCCC2)c1)N1CCCc2ccccc21,-0.73,-0.65
Cc1nn(-c2ccccc2)c2c1C1(C(=O)Nc3ccc(F)cc31)C(C#N)=C(N)O2 (stereo not given),-0.11,.
CCOC(=O)N1CCC(NC(=O)c2cc(C)on2)CC1,-1.3,1.1
CC(=O)N(CC(=O)O)c1ccccc1C(=O)O,0.52,2.5
O=[N+]([O-])c1ccc2nc(-c3ccc(Cl)cc3)n(OCc3ccccc3)c2c1,-0.59,.
N#CC1=C(N)N(c2cc(C(F)(F)F)ccc2Cl)C2=C(C(=O)CCC2)C1c1ccsc1 (stereo not given),0.17,.
C=CCN1CC(c2nc3ccccc3n2CC(C)C)CC1=O (stereo not given),-0.065,0.5
CCc1cc2c(=O)c(-c3nc4ccccc4s3)coc2cc1O,0.53,1.1
C=CCNC(=O)C1CCN(S(=O)(=O)CC)CC1,-0.18,0.55
N/C(=N\OC(=O)c1sc2ccccc2c1Cl)c1cccc([N+](=O)[O-])c1,-1.2,.
CN(C)C=Nc1ccc(Oc2cncc(Cl)c2)nc1,0.32,-1
Cc1ccc(C(=O)N2C3=C(CCCC3)C(=O)NC23CCCCC3)cc1,0.07,-0.85
CC1CC(NC2=NCCS2)CC(C)(C)C1 (stereo not given),-0.8,1.2
O=C(Oc1ccc2ccc(=O)oc2c1)c1ccccc1,0.075,-0.4
Clc1ccccc1CN1CCN(Cc2ccco2)CC1,.,0
C#CCN1C(=O)S/C(=C/c2cc(C)n(-c3cccc(I)c3)c2C)C1=O,0.06,-0.15
N#CCCN1CCCC2(CCCC2)C1,-0.04,-0.55
Cc1ccc(S(=O)(=O)N2C(=O)CCC2C(=O)O/N=C(\N)c2ccccn2)cc1 (stereo not given),-0.22,1.9
COc1ccc(CCn2c(N)c(Br)c(=O)[nH]c2=O)cc1OC,0.045,-1.1
Cc1cccc(OCC(=O)Nc2ccc(NC(=O)c3ccco3)cc2)c1,.,-0.05
COC(CNC(=O)Cn1nc(-c2ccccc2)c2cc(Cl)ccc21)OC,0.41,0.2

# In another format: results already given
Cc1ccc(C(=O)N2C3=C(CCCC3)C(=O)NC23CCCCC3)cc1
  Ba CapD inh = 0.07
  AID504770 = -0.85

CC1CC(NC2=NCCS2)CC(C)(C)C1 (stereo not given)
  Ba CapD inh = -0.8
  AID504770 = 1.2

O=C(Oc1ccc2ccc(=O)oc2c1)c1ccccc1
  Ba CapD inh = 0.075
  AID504770 = -0.4

# Next part:
Structure,Ba CapD inh,AID504770
COCCN1Cc2cccc(C(=O)Nc3ccc4c(C)cc(=O)oc4c3)c2C1=O,-0.45,-1.4
Cc1ccc(S(=O)(=O)c2ccc(-n3ncc(C#N)c3N)cc2)cc1,.,-0.5
CN(C)/C=N/C(=S)Nc1cccc(C(F)(F)F)c1,0.74,.
COc1ccc(-c2nc3c(cc2C#N)c(=O)n(C)c(=O)n3CC(C)C)cc1,.,-0.15
CSc1nnc(-c2sccc2OCc2ccc(Cl)cc2Cl)n1C,0.24,.
CNC(=O)O/N=C/c1nn(C(=O)C(C)(C)C)cc1Br,0.035,1
CCNc1ccc(P(=S)(N(C)C)N(C)C)cc1,.,-0.25
CCC(C)NC(=O)Cn1ncn2c(cc3sc(C)cc32)c1=O (stereo not given),-0.55,-0.35
Cc1c(N=Cc2cccnc2)c(=O)n(-c2ccccc2)n1C,.,0.05
CCc1nc(NN)c2c(n1)-c1ccccc1CC21CCCCC1,0.99,0.2
CC(=O)N1CCC(C(=O)c2c(C)c(C)c(C)c(C)c2C)CC1,-0.66,-1
O=C(NCCc1ccccc1)c1cc(-c2ccccc2)on1,-0.12,-0.35
CC(=O)C1=NN(c2ccc(Br)cc2)C2(S1)c1ccccc1C(c1ccc(C)cc1)=NN2c1ccccc1 (stereo not given),-0.02,.
CN[C@@H]1C2CN3CCC(O2)[C@@H]13 (stereo not given in full),0.32,-0.5
CCN1C(=O)c2cccc3c(S(=O)(=O)Nc4ccc(C)cn4)ccc1c23,-0.49,-0.05
N#Cc1c(NC(=S)NC(=O)c2ccco2)sc2c1CCCC2,1,1.1
COC(=O)C1CCN(C(=O)Cn2c(=O)cnc3ccccc32)CC1,.,0.95
Cc1onc(-c2c(F)cccc2Cl)c1C(N)=S,0.39,.
COc1ccc(COC(=O)C2=C(C)NC(=O)NC2c2cccc(Br)c2)cc1 (stereo not given),-0.67,.
CN1/C(=C\C(=O)CN2CCOCC2)C(C)(C)c2ccccc21,.,0.25
CCOC(=O)c1ccc(NC(=O)CSc2nc3ccccc3c(=O)n2CCCC(=O)NCCCN2CCCC2=O)cc1,-0.06,.
O=P(COc1ccccc1CP(=O)(c1ccccc1)c1ccccc1)(c1ccccc1)c1ccccc1,0.26,.
CCNC(=O)C1CC(=O)N(c2ccc(C)cc2)C1 (stereo not given),0.39,-0.6
CCC(=O)NCc1ccc2[nH]c(C)cc2c1,0.62,-0.2

# The last 5 compounds of the part above open the next one.
Structure,Ba CapD inh,AID504770
CN1/C(=C\C(=O)CN2CCOCC2)C(C)(C)c2ccccc21,.,0.25
CCOC(=O)c1ccc(NC(=O)CSc2nc3ccccc3c(=O)n2CCCC(=O)NCCCN2CCCC2=O)cc1,-0.06,.
O=P(COc1ccccc1CP(=O)(c1ccccc1)c1ccccc1)(c1ccccc1)c1ccccc1,0.26,.
CCNC(=O)C1CC(=O)N(c2ccc(C)cc2)C1 (stereo not given),0.39,-0.6
CCC(=O)NCc1ccc2[nH]c(C)cc2c1,0.62,-0.2
COC(=O)c1ccccc1NC(=O)COc1nc2ccccc2nc1N1CCOCC1,.,-2.1
c1ccc(CSC2=NCN(Cc3ccccc3)CN2)cc1,0.005,0.9
O=C1Nc2ccccc2-c2ccccc2N1,10,-0.25
CCOC(=O)c1csc(NC(=O)COc2ccc(Cl)cc2Cl)n1,-0.14,0.35
CC(c1ccccc1)n1c(CCc2ccc(O)cc2)n[nH]c1=S (stereo not given),1.8,-0.2
O=C(NC(=O)c1ccccc1F)OCc1ccc(Cl)cc1Cl,-0.51,1.8
CCOC(=O)c1oc2ccccc2c1NC(C)=O,58,-0.35
Cc1ccccc1/C=C1\Sc2ccccc2N(CC(=O)NC(C)c2ccccc2)C1=O (stereo not given),-0.69,-0.2
CCC(C)NC(=O)CSc1nc2n[nH]c(C)c2c(=N)n1-c1ccc(Br)cc1 (stereo not given),72,0.35
c1ccc(-c2nnc(SCc3cccnc3)o2)cc1,.,-0.1
COc1ccc(CCNC(=O)CSc2nc(N3CCOCC3)nc(N3CCOCC3)n2)cc1OC,0.1,0.2
Cc1nc2ccccc2cc1C(=O)NCc1ccccn1,0.11,-0.3
CC(C)(C)c1cc(C(=O)NN)n(Cc2ccccc2)n1,-0.38,1.5
CN(Cc1cccnc1)C(=O)CNS(=O)(=O)c1ccccc1C#N,.,0.1
O=C(O)C1CCN(c2ncccn2)CC1,9.3,-0.1
COc1ccc(C(=O)CCN2CCOCC2)cc1,-0.045,-1
Cc1cc(NCc2cccnc2)n2ncnc2n1,.,0.45
CCOC(=O)c1ccccc1NC(=O)c1sc(NC(=O)c2ccc(OC)c(OC)c2)c(C(=O)OCC)c1C,-0.21,.
O=C(CSc1ncccn1)n1c2c(c3ccccc31)CCCC2,.,0.5
Cc1ccccc1NC(=O)Cn1ncc2ccccc21,0.2,1.4
COC(=O)C1=CN(C(CC(C)C)C(=O)OC)C=C(C(=O)OC)C1c1ccc(Br)cc1 (stereo not given),0.085,2.1
CC1CCN(Cc2cc(Cl)c(O)c(Cl)c2)CC1,0.095,-0.05
CCN(CC)S(=O)(=O)c1ccc(NC(=O)Cn2c(=O)cnc3ccccc32)cc1,.,-1.2
C[C@H]1O[C@@H](n2cnc3c(N)ncnc32)[C@H](O)[C@@H]1O,0.85,0.05
Cc1ccc(-n2cnc3cc(NCc4ccco4)ccc32)cc1,87,-0.55
CCOC(=O)C1CCC(CNCc2ccccc2)CC1 (stereo not given),-0.39,-1.4
CN1CC=C(/C=C/c2ccc(-c3nc4ccccc4s3)o2)CC1,.,-0.5
O=C(CN1C(=O)NC2(CCCC2)C1=O)c1ccccc1,.,0.3
O=c1cc[nH]c(=S)[nH]1,-0.01,0.7
CCCNC(=O)c1cc(N(C)S(=O)(=O)c2ccccc2)ccn1,-0.005,-0.05
COC(=O)Cn1c(=O)c(=O)n(CC(=O)OC)c2ccccc21,.,-0.8
CCc1ccc(CNC(=O)CCc2cn(Cc3ccccc3)c3ccccc23)cc1,1,0.8
Clc1ccccc1-c1nnc(SCCC2OCCCO2)o1,0.78,.
CC1(C)C2CC=C(CNc3ccc4c(c3)OCO4)C1C2 (stereo not given),3.1,-0.95
Cc1cc(-n2c(C)cc(/C=C3\SC(=NC4CCCC4)NC3=O)c2C)no1,.,-0.7
COc1cc(C(=O)OCn2c(=O)oc3ccccc32)cc(OC)c1OC,.,0.55
O=C1C=C(Cc2ccc(F)cc2)C(=O)c2ccccc21,0.005,-0.5
OC1COCc2nc3ccccc3n2C1 (stereo not given),.,-0.6
Cc1sc2ncn(CC(=O)NC3CCCC(C)C3C)c(=O)c2c1S(=O)(=O)N1CCC(C)CC1 (stereo not given),-0.82,.
O=C(CSc1nnc(CCN2C(=O)c3cccc4cccc(c34)C2=O)n1-c1ccccc1)NCCCO,22,.
C=CCn1c(-c2c(C)oc3ccccc23)cs/c1=N\S(=O)(=O)c1cccs1,.,-0.25
CC1CCCCN1C(=S)NCc1ccccc1 (stereo not given),0.38,-0.3
CC(C)CCNC(=O)Cn1c(SCc2c(F)cccc2Cl)nc2ccncc21,0.35,0.05
Cc1cccc(OCCn2cnc3ccccc32)c1,-0.4,1.1
Clc1ccc(OCCn2cnc3ccccc32)cc1,-0.2,-0.85
COC(=O)c1c(C)nn(C)c1-c1ccno1,-0.83,-0.85
CC1(C)CC(=O)C(N=Nc2ccc3c(c2)OCO3)=C(O)C1,-2.2,-0.6
O=C(Nc1ccc2oc(-c3cccc(F)c3)nc2c1)c1ccc2c(c1)OCCO2,0.92,.
N/C(=N\c1nc(-c2cccs2)cc(C(F)(F)F)n1)Nc1cccc(Cl)c1,0.13,0.75
Cn1nccc1-c1cc(F)cc(F)c1O,4.5,1.2
Cc1ccc(NC(=O)c2ccccc2N=Cc2cc(Cl)cc(Cl)c2O)c(N=Cc2cc(Cl)cc(Cl)c2O)c1,-0.01,.
CN(C)S(=O)(=O)c1ccc(N=Cc2c(C(F)(F)F)[nH][nH]c2=O)cc1,-0.69,.
CCCOc1ccc(NC(=O)c2ccccc2C(=O)O)cc1,-0.8,3.3
Cc1nc2ccccc2c2c1C(=O)CC(c1ccc(F)cc1)=N2,0.32,-0.5
COCCOC(=O)C1=C(C)NC(C)=C(C(=O)OC(C)C)C1c1cccc([N+](=O)[O-])c1 (stereo not given),-0.16,0.25
COC(=O)c1cc(NC(=O)c2cnn3c(C(F)(F)F)cc(-c4ccco4)nc23)cc(C(=O)OC)c1,-0.4,.
CCOC(=O)Nc1ccc(NC(=O)OCC)cc1,-0.09,-0.9
O=C1NC(=O)N(c2ccccc2)C(=O)/C1=C/c1ccco1,0.27,0.05
Cc1ccc(-n2c(N)c(C(=O)Nc3ccccc3)sc2=S)cc1C,-0.49,.
Oc1ccccc1-c1nc(-c2ccccc2)no1,2.3,1.5

# Next section
Structure,Ba CapD inh,AID504770
Cn1c(=O)c2c(nc(Cl)n2CC(=O)c2ccc(Br)cc2)n(C)c1=O,-0.51,.
O=S(=O)(c1ccccc1)N1CCC(O)C2CCCCC21 (stereo not given),-0.16,-0.5
CC(=O)O[C@@H]1[C@@H](OC(C)=O)[C@@H]2OC[C@@H](O2)[C@H]1OC(C)=O,0.56,-0.05
CCOC(=O)C1CCCN(C(=O)c2c[nH]c3ccc(S(=O)(=O)N(C)c4cc(C)ccc4C)cc3c2=O)C1 (stereo not given),-0.19,.
